# High-throughput results: PubChem BioAssay, National Center for Advancing Translational Sciences (NCATS)
# Rango release inh – inhibitors of RanGTP-induced Rango-importin beta complex dissociation; Biochemical FRET Rango-importin beta, RanGTP-induced dissociation; Potency, µM (series often up to 46.1 µM), for the others: top-dose activity change, negative = inhibition; hit rate 0.071% among 340,000; active means falling FRET ratio curve, often poorly fitted, with flat reads before Ran was added; inconclusive means other falling curves, or compound fluorescence or quenching; inactive means flat or rising ratio curve;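 further: potency means the concentration at half of the fitted maximal effect; % of control where 0% means no effect; nearly all actives have a fitted effect of over 45% in size; -100% = wells without RanGTP and RCC1; the record marks most hits as doubtful in a second field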
#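 Rango FRET biosensor (snurportin-1 IBB flanked by N-terminal EYFP and C-terminal CFP10) at 0.1 uM, with 0.25 uM importin beta in PBS, 1mM DTT, 0.02% Tween-20, 0.1% BSA. 0.6 uM Ran, 2mM GTP and 0.2 uM RCC1 were then added for 45 min at room temperature. Inhibition read as loss of FRET rise.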
# Rango complex inh – inhibitors of Rango-importin beta complex formation; Potency, µM (series often up to 92.2 µM), inactives show top-dose inhibition of complex formation; Rango CFP/YFP FRET sensor + importin beta, 45 min; Q14974; hit rate 0.031% among 340,000; AID 540263; active = rising FRET ratio curve, often small or poorly fitted; inconclusive = mostly compound fluorescence or quenching in the first reads; inactive = flat curves in all reads;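 further: potency means the concentration at half of the fitted maximal effect; 0% = DMSO wells and 100% = buffer wells lacking importin beta; nearly all actives have a fitted effect of over 15% in size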
#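 Inhibition scored from the CFP 486 nm/YFP 530 nm FRET ratio 45 min after adding 0.125 microM importin beta to 50 nM Rango biosensor preincubated 5 min with compound (room temperature, PBS with DTT, Tween-20, BSA). No-importin wells as positive control.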
# miR-21 reporter – miR-21 reporter, rising signal | HeLa miR-21 FLuc reporter, luciferase, 48 h | 340,000 tested, under 10 active | Potency, µM (series often up to 38.3 µM), for the others: top-dose reporter change, positive = more light; active = well fitted rising curve with a large enough effect; inconclusive = small, poorly fitted or top-dose-only effect; inactive = no such curve, though single readings can be large or run the other way;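 further: % of control where 0% means no effect; miR-21 action dims this reporter so a rising signal means less miR-21 action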
#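 Compounds were titrated across several concentrations (up to approximately 40 uM) and incubated 48 hours with HeLa miR-21-FLuc reporter cells (miR-21 target sequence downstream of FLuc, endogenous miR-21). Readout was firefly luciferase luminescence after lytic detection reagent.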
# GLA inh pH 4.5 – inhibitors of human alpha-galactosidase A at pH 4.5; P06280; purified enzyme, 4-MU-alpha-Gal fluorescence, pH 4.5; activity change, negative = inhibition, % at 105 µM; 230,000 tested, under 10 active; inconclusive = small, poorly fitted or top-dose-only inhibition, or a rising curve; inactive = flat fitted curve, though single readings scatter; no compound was filed as active;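 further: 0% = full activity with enzyme and -100% = basal without enzyme; dose as in the result columns while the protocol names 77 µM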
# Target sequence (P06280 whole entry, looked up): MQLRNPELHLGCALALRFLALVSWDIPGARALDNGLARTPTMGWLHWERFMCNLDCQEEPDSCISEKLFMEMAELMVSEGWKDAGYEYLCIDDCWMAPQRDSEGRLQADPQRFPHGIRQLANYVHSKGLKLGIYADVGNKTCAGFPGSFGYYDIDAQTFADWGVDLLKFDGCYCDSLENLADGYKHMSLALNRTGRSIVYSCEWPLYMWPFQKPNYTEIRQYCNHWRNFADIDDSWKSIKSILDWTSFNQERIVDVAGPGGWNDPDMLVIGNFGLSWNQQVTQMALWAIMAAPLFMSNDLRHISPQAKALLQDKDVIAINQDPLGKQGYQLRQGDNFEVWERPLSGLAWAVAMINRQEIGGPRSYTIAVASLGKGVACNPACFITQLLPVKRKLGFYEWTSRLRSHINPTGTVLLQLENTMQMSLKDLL
# * hit, by the source's call; ? = inconclusive; . = no result given; & = joins results of further samples. A portion of the library; count on the stated rates, not on these rows.
SMILES	Rango release inh	Rango complex inh	miR-21 reporter	GLA inh pH 4.5
CCOC(=O)N1CCN(C(=O)CNC2CCCCCCC2)CC1	28%	-1.1%	0%	1
O=C(O)c1ccc(CSc2nnc(-c3ccncc3)n2-c2ccc(Cl)cc2)cc1	-4%	-8.2%	-4%	-1
COc1cccc(C2CC(=O)Nc3c2c(=O)n(C)c(=O)n3C)c1OC (stereo not given)	6%	4.7%	-3%	2
Cc1ccc(N2C(=O)C(Cl)=C(N3CCOCC3)C2=O)c(C)c1	-8%	0.5%	8%	.
O=C(CN1CCN(S(=O)(=O)c2cc(Cl)ccc2Cl)CC1)c1ccc(O)c(O)c1	2%	0.6%	-10%	.
CC(=O)C1=C(C)Nc2ncnn2C1c1ccc(Br)cc1 (stereo not given)	4%	0.5%	-18%	.
N#Cc1ccc(S(=O)(=O)NC2CCCCNC2=O)cc1 (stereo not given)	-10%	?	-5%	.
O=C(CSCCO)Nc1cc(C(F)(F)F)ccc1Cl	-5%	0.1%	-6%	1
Cc1cc(=O)[nH]c(SCC(=O)Nc2ccc3c(c2)OCCO3)n1	3%	-0.9%	6%	-11
CCc1ccccc1Nc1nc2ccccc2n1CC	27%	5.2%	5%	0
CCOCCOC(=O)c1[nH]c2c(c1C)C(=O)CC(c1ccccc1)C2 (stereo not given)	1%	0.0%	17%	.
O=C(NCCc1ccccc1)C1CCN(S(=O)(=O)N2CCOCC2)CC1	11%	-0.1%	0%	.
CSCC(C)N1CCC(n2nccc2NC(=O)c2ccccc2C)CC1 (stereo not given)	-16%	-1.1%	0%	.
CC12CCC(C(=O)OC3CCCCC3)(OC1=O)C2(C)C (stereo not given)	-6%	?	8%	.
O=C(N/N=C/c1cccc(O)c1)c1ccc(COc2ccc3c(c2)CCC3)o1	4%	-0.1%	-16%	-12
CSc1ncccc1C(=O)Nc1ncc(C)s1	12%	-1.4%	-4%	.
O=S(=O)(c1ccc(Cl)c(NC(=S)Nc2ccccc2N2CCOCC2)c1)N1CCOCC1	-8%	3.4%	-3%	-3
N#Cc1cc2c(=O)n3ccccc3nc2n(CCCN2CCOCC2)c1=O	?	?	-8%	?
Cc1noc(C)c1S(=O)(=O)Nc1ccc2c(c1)C(=O)N([C@H](C)CO)C[C@H](C)[C@@H](CN(C)C(=O)Nc1ccc3c(c1)OCO3)O2	-8%	0.9%	.	.
CC1=NN=C(c2ccccc2)C(c2c[nH]c3ccccc23)N1O (stereo not given)	0%	-4.9%	-12%	5
CCOc1cc(C(=O)Nc2cnccn2)cc(OCC)c1OCC	2%	-5.5%	21%	1
CCN(CC)S(=O)(=O)c1ccc(N2CCOCC2)c(NC(=O)c2cc(Cl)c3c(c2)OCO3)c1	?	0.7%	.	.
COc1ccc(C[C@@H]2CN3C(=NC[C@@H]3C)N2C[C@H](C)NC(=O)c2ccc(C)c(Br)c2)cc1	-23%	-0.4%	-4%	0
COC(=O)C1CCN(C(=O)CN2C(=O)NC(CCc3ccccc3)C2=O)CC1 (stereo not given)	-5%	-2.4%	-2%	4
COc1ccc(-c2nn(-c3ccccc3)cc2/C=N/NC(=O)c2ccc3c(c2)OCO3)cc1	.	.	-16%	-5

# Next part.
SMILES	Rango release inh	Rango complex inh	miR-21 reporter	GLA inh pH 4.5
Cc1cc(C(=O)NNC(=O)c2ccc(C)c([N+](=O)[O-])c2)c(C)o1	12%	?	.	.
CC(=O)c1cn(C2OC(CO)C3OC(C)(C)OC32)c(=O)n(C)c1=O (stereo not given)	9%	-1.0%	.	.
Cc1ccc(NC(=O)NC(=O)N(c2ccccc2)S(C)(=O)=O)cc1	4%	-2.4%	-25%	-7
COC(=O)CC1=C(C(=O)OC)C(c2cc(OC)c(OC)cc2OC)C(C#N)=C(N)O1 (stereo not given)	?	?	6%	2
C/C(=N/NS(=O)(=O)c1ccc(C)cc1)c1cccc(NC(=O)c2cccc(Cl)c2)c1	-2%	7.1%	-5%	-4
CCOC(=O)c1c(C)n(C)c2ccc(OCC(O)Cn3nc(C)cc3C)cc12 (stereo not given)	-11%	0.9%	-3%	0
COc1ccccc1OCC(=O)Nn1c(=S)[nH]c2ncccc2c1=O	1%	0.0%	-4%	-4
CCOc1ccc(CN(C)C(=O)c2cc(S(=O)(=O)N3CCCC3)ccc2C)cc1	-6%	-1.6%	.	.
Cc1ccc(S(=O)(=O)N/N=C\c2cn(CC(N)=O)c3ccccc23)cc1	-8%	3.1%	1%	.
O=C(COC(=O)C12CC3CC(CC(O)(C3)C1)C2)N1CCN(S(=O)(=O)c2ccc(Cl)cc2)CC1	3%	-1.1%	1%	1
Cc1cc(C)n(-c2ccc(C(=O)NCC(c3ccco3)N3CCCC3)cc2)n1 (stereo not given)	-9%	-0.7%	.	.
CCn1c(COc2cccc(C)c2)nnc1SCC(=O)NC1CCCC1	4%	-4.7%	-1%	.
COc1ccc(CN2CCN(c3ccccc3OC)CC2)cc1OC	-6%	?	7%	.
CSc1nc(Cl)c(Cc2ccc(OC(C)C)cc2)c(N2CCOCC2)n1	0%	2.1%	9%	5
CCn1c(SCc2nc3ccccc3nc2C)nnc1-c1cccs1	-13%	-3.2%	-7%	-1
COC(CSc1nc(N)c2c3c(sc2n1)CN(C)CC3)OC	-22%	?	-31%	.
CCN1CCN(c2nc(-c3cccs3)nc3ccccc23)CC1	6%	-2.2%	0%	5
COc1ccc(/C=C2\SC(=O)N(CCC(=O)N3CCCCC3CCO)C2=O)cc1 (stereo not given)	-7%	1.2%	-2%	.
Cc1ccc(-c2nn(-c3ccc(F)cc3)cc2C(=O)N(C)CC(=O)Nc2ccc(N3CCOCC3)cc2)cc1	1%	-1.3%	.	.
Cc1ccc(C(=O)/C=C/c2ccco2)c(O)c1	-11%	-2.7%	-17%	-4
CNC(=S)Nc1ccc(C23CC4CC(CC(C4)C2)C3)cc1	5%	-0.5%	-14%	-5
CCCc1[nH]nc2c1C(c1ccc(OC(=O)N3CCOCC3)c(OC)c1)C(C#N)=C(N)O2 (stereo not given)	-7%	?	-1%	-2
CCc1cc2c3c(c1)C(C)CC(C)(C)N3C(=O)C2=O (stereo not given)	22%	-0.6%	18%	-4
CCOC(=O)C1(CCc2ccccc2)CCN(Cc2cc(OC)c(OC)cc2OC)CC1	-1%	-2.7%	25%	.
O=C(Nc1ccc(Cl)cc1)c1ccc2c(c1)OCO2	-8%	?	-35%	-2

# Reformatted: entries from further up.
Structure: CCCc1[nH]nc2c1C(c1ccc(OC(=O)N3CCOCC3)c(OC)c1)C(C#N)=C(N)O2 (stereo not given)
  Rango release inh = -7%; Rango complex inh = ?; miR-21 reporter = -1%; GLA inh pH 4.5 = -2

Structure: COc1ccc(CN2CCN(c3ccccc3OC)CC2)cc1OC
  Rango release inh = -6%; Rango complex inh = ?; miR-21 reporter = 7%; GLA inh pH 4.5 = .

# Later entries:
# The line under a structure holds: Rango release inh | Rango complex inh | miR-21 reporter | GLA inh pH 4.5
- O=C(NCCCN1CCC(Cc2ccccc2)CC1)C1CC(=O)N(C2CCCC2)C1 (stereo not given)
 : 3% | -4.4% | 0% | 4
- Cc1ccccc1OCCNc1cc(N2CCNCC2)ccc1[N+](=O)[O-]
 : . | . | -5% | -13
- O=C(CSc1nnc(CN2CCCC2)n1-c1ccc(F)cc1)c1ccc2c(c1)OCO2
 : -20% | 3.6% | . | .
- Cc1ccc(OCC(=O)NC(=S)Nc2ccc(Br)c(C)n2)cc1
 : 10% | -1.9% | -5% | 5
- CC1(C(=O)N2CCN(c3ccc([N+](=O)[O-])cc3)CC2)CC1(Cl)Cl (stereo not given)
 : 5% | -2.4% | 21% | .
- CC(C)CN(CC(C)C)CC(O)COc1ccccc1Br (stereo not given)
 : -4% | 0.6% | -3% | -12
- COc1cccc(CNC(=O)CCC2CCCN(C(=O)C3=CC(=O)CC(C)(C)O3)C2)c1 (stereo not given)
 : 5% | 6.1% | 3% | 2
- O=C(NCC(=O)N(c1cccnc1)C(C(=O)NC1CCCC1)c1ccccc1F)c1ccco1 (stereo not given)
 : 3% | -0.1% | -3% | .
- Cn1c(C2=C(O)CN(Cc3ccccc3)C2=N)nc2ccccc21
 : -12% | -0.1% | -64% | -4
- Cc1ccc2c(CN3CCCCC3C)cc(=O)oc2c1C (stereo not given)
 : 8% | 0.2% | -27% | .
- CCOc1cccc(/C=C2/NC(=O)N(CC(=O)Nc3cccc(C)c3)C2=O)c1O
 : -4% | 2.9% | 2% | 7
- CC(C)C[C@@]12C(=O)N(c3cccc(Br)c3)C(=O)N1[C@H](c1ccc(F)cc1)[C@@H]1C(=O)N(C3CCCCC3)C(=O)[C@@H]12
 : -8% | -2.5% | . | .
- Cc1cccc(C)c1OCC(=O)Nn1c(COc2ccccc2)nc2ccccc2c1=O
 : 0% | -1.5% | 8% | -11
- Cc1ccc(C(=O)O)cc1N1C(=O)CCCC1=O
 : 12% | 1.5% | 2% | -2
- FC(F)(F)c1ccc(CN2C[C@@H]3C(c4ccc(C(F)(F)F)cc4)C4(c5cccnc5)CC3(C4)[C@H]2c2ccccc2)cc1 (stereo not given in full)
 : 21% | 4.4% | 5% | -6&3

# Not a retest: 4 of the compounds above.
# The line under a structure holds: Rango release inh | Rango complex inh | miR-21 reporter | GLA inh pH 4.5
- O=C(NCCCN1CCC(Cc2ccccc2)CC1)C1CC(=O)N(C2CCCC2)C1 (stereo not given)
 : 3% | -4.4% | 0% | 4
- Cc1ccccc1OCCNc1cc(N2CCNCC2)ccc1[N+](=O)[O-]
 : . | . | -5% | -13
- O=C(CSc1nnc(CN2CCCC2)n1-c1ccc(F)cc1)c1ccc2c(c1)OCO2
 : -20% | 3.6% | . | .
- Cc1ccc(OCC(=O)NC(=S)Nc2ccc(Br)c(C)n2)cc1
 : 10% | -1.9% | -5% | 5

# Remaining list, next part:
# The line under a structure holds: Rango release inh | Rango complex inh | miR-21 reporter | GLA inh pH 4.5
- CN(C#N)c1nc(N2CCOCC2)nc(N2CCOCC2)n1
 : -1% | 3.6% | . | .
- CCOC(=O)c1sc(NC(=O)CCSC)nc1C
 : -8% | -1.5% | -15% | 0
- CCOc1ccccc1N1CCN(Cc2c(C)n(C)n(-c3ccccc3)c2=O)CC1
 : 13% | 3.2% | 11% | 17
- COc1cc(S(=O)(=O)N2CCN=C2c2ccccc2)c(OC)cc1Cl
 : 8% | 0.1% | -3% | .
- CCCC(C)n1[nH]c(=O)cc1N (stereo not given)
 : 1% | -0.2% | 1% | -5
- Cc1ccc(C)c(Nc2cc(C)nc3ncnn23)c1
 : -5% | -6.0% | -15% | .
- Cc1cc(NC(=O)CSc2nccn2-c2ccc(Cl)cc2)no1
 : -13% | 2.2% | -2% | 6
- O=C(CCCN1C(=O)/C(=C/c2ccccc2Cl)SC1=S)NCCCN1CCOCC1
 : -13% | 0.0% | ? | .
- N#Cc1c[nH]n2c(=O)c3c(nc12)CCCC3
 : . | . | 2% | -5
- CC(=O)c1cccc(OCC(=O)N(C)CC(=O)Nc2ccc(F)cc2)c1
 : 3% | -0.5% | 0% | 3
- CC1(C)Cc2c(cnn2-c2ccc(F)cc2)C(NC(=O)c2cnccn2)C1 (stereo not given)
 : 1% | -2.5% | . | .
- C/[N+]([O-])=C/c1c(OCc2ccc(Cl)cc2Cl)ccc2ccccc12
 : 0% | -0.8% | -4% | -1
- Cc1ccccc1C(O)c1cccnc1 (stereo not given)
 : 10% | -4.1% | -17% | 1
- O=C(O)CN(Cc1ccccc1)S(=O)(=O)c1ccc2c(c1)OCCO2
 : -10% | -1.6% | -3% | -15
- O=C(CCC(=O)c1cccs1)NNC(=O)c1ccccc1O
 : 35% | 0.3% | . | .

# Following part.
# The line under a structure holds: Rango release inh | Rango complex inh | miR-21 reporter | GLA inh pH 4.5
- COc1ccc(N2CCCC2)c(NC(=O)COc2ccccc2)c1
 : 10% | 0.3% | -4% | .
- CN(NC(=O)COc1ccccc1)C1=NS(=O)(=O)c2ccccc21
 : -10% | -0.1% | 2% | 1
- COc1ccc(CCNC(=O)c2nn(C)c3c2CS(=O)(=O)c2ccccc2-3)c(OC)c1
 : -6% | -1.0% | 26% | .
- FC(F)Oc1ccc(/C=N/NC(=S)Nc2cc(C(F)(F)F)ccc2Cl)cc1
 : 5% | 6.0% | 0% | 8
